# Env fusion inh – HIV envelope-mediated fusion inhibition; HeLa-JRFL Env/CEM21 cell fusion, luciferase; AID 651610; actives 1.1% (n = 360,000); inhibition, % at 12.3 µM;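 active = mean replicate inhibition score of at least 50 and every replicate individually at or above 50; inconclusive = only one of the two criteria met; inactive = mean below 50 and not all replicates reaching 50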;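 also: 0% = plate neutral controls and 100% = maraviroc near 300 nM; one replicate is shown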
# CSC inhib – cancer stem cell inhibition; cancer stem cell-like cells viability, luminescence; inhibition, % at 7.5 µM; actives 1.1% (n = 300,000); AID 2717;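 active = mean at 75% or more and at least half the replicates too; inconclusive = mean and replicates disagree; tested in HMLE shEcad cells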;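 also: 0% = median of negative and 100% = median of positive control wells; the first replicate is given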
# Rce1 inh – yeast Ras-converting enzyme inhibition | actives 0.27% (n = 290,000) | calls only | AID 2563 | yeast membranes, quenched prenylated peptide cleavage fluorescence;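 active = fall in fluorescence gain of 50% or more versus controls, with final raw signal at or below 3038400; inconclusive = same 50% fall but final raw signal above 3038400; inactive = fall in fluorescence gain under 50%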;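 also: plate controls were neutral control wells for no effect and wells lacking membranes for full effect; tested at 10 µM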
# Target sequence (Q03530 whole entry, looked up): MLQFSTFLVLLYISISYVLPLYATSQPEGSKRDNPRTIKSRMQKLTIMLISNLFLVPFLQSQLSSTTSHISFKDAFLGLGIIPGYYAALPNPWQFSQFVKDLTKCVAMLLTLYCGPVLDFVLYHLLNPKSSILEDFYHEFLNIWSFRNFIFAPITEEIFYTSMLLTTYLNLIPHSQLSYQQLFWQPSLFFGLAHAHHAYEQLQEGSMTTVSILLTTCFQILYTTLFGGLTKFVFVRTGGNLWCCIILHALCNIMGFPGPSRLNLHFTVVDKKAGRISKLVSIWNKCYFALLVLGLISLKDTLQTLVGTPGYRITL
# MT1-MMP act inh – inhibitors of human MT1-MMP activation | P50281 | HT1080 RFP-PRO-GFP cells, GFP/RFP ratio fluorescence, overnight; percent of plate control window, DMSO zero | GFP/RFP ratio change, % at 20 µM | actives 0.061% (n = 360,000);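 active = GFP/RFP ratio change of at least 30% with cell ATP level not reduced by more than half and red fluorescence within 50% of control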; also: strong numbers were not always called active
#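 Assay system: HT1080 cells carrying an RFP-PRO-GFP reporter | Dosing: Single dose of 20 µM compound, 1% DMSO final | Incubation: Cells overnight before dosing, compound overnight, 37 °C, 5% CO2 | Evaluation: GFP/RFP fluorescence ratio | Control set: DMSO and RFP-L50D-GFP cell wells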
# eIF4H inh – inhibitors of RNA binding by human eIF4H | actives 0.94% (n = 290,000) | Q15056 | eIF4H fluorescence polarization binding assay | inhibition, % at 35 µM;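 active = 50% or more with normal probe brightness, or confirmed in later tests; inconclusive = above 50% with abnormal brightness, or retests that disagree; inactive = below 50% or failed in later tests; about a fifth of its hits are not listed in these tables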;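 also: calls also rest on retests at 20 µM and on dose response follow-up; 0% = protein and probe with vehicle and 100% = probe without protein; strong numbers were not always called active; many hits fall short of the cut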
# PABP FP inh – blocks human PABP binding to poly(A) RNA | P11940 | fluorescence polarization | inhibition, % at 35 µM | actives 1% (n = 290,000) | AID 2014;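 active = 50% or more with normal probe brightness, or confirmed in later tests; inconclusive = above 50% with abnormal brightness, or retests that disagree; inactive = below 50% or failed in later tests; about a fifth of its hits are not listed in these tables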;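 also: calls also rest on retests at 20 µM and on dose response follow-up; controls were probe without protein and protein plus probe with vehicle; some compounds called inactive have numbers as strong as hits; many hits fall short of the cut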
# Target sequence (P11940 whole entry, looked up): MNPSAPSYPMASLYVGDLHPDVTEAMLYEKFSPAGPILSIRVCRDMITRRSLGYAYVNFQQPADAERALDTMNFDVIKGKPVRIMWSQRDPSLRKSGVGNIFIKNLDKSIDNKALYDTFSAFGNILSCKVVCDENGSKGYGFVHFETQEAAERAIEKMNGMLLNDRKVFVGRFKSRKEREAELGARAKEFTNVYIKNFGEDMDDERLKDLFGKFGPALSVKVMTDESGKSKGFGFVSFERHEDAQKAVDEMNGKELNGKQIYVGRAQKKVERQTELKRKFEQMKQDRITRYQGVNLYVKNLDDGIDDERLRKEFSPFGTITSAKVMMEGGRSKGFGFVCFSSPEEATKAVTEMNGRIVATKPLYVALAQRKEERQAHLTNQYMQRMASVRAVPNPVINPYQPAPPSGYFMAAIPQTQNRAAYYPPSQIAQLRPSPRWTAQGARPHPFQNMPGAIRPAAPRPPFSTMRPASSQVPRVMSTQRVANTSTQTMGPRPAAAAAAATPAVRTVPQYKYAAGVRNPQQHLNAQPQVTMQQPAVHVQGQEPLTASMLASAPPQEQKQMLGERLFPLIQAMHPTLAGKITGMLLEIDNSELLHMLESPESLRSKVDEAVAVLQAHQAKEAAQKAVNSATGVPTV
# UUG fidelity – yeast start codon fidelity modulation | S. cerevisiae UUG-firefly luciferase reporter, luminescence/redox ratio | activity score, % at 18.7 µM | actives 0.13% (n = 350,000) | AID 602363;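 active = replicate mean at a twofold rise or more, about +100% in these data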;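 also: firefly luciferase made from a UUG start codon reports start codon fidelity; reporter light over untreated wells divided by growth signal over untreated wells; some hits fall short of that in this replicate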
# eIF4H inh retest – also measured in eIF4H inh; calls as there; inhibition, %; compound at 20 µM; confirmation average;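 mean of two retest wells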
# PABP FP inh retest – also measured in PABP FP inh; calls as there; inhibition, %; compound at 20 µM; confirmation repeats;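 mean of two retest wells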
# MT1-MMP act inh RFP – recorded beside MT1-MMP act inh, whose call it bears; RFP signal change, %; measured here: RFP expression control read;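 0 = vehicle wells; hits needed this value within 50% of zero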
# The depositor's hits bear a star; i = inactive; ? = inconclusive; . = not tested or not shown; & = joins results of further samples. These rows are one share of the data. The share of hits here may be higher or lower than overall.
SMILES,Env fusion inh,CSC inhib,Rce1 inh,MT1-MMP act inh,MT1-MMP act inh RFP,eIF4H inh,PABP FP inh,UUG fidelity,others
CCN(CC)C(=O)N[C@H]1C[C@@H]2c3cccc4[nH]cc(c34)C[C@H]2N(C)C1,.,-11,i,-6,7,?,0,-3,
Cc1cc(C)n(-c2ccc(NN=C(C#N)C#N)cc2)n1,24,32,i,-13,-18,-1,10,1,
CNC(=S)N/N=C1\C2CN3CCN(C2)CC1(c1ccccc1)C3,.,-18,i,2,0,-1,-5,.,
COP(=O)(NC(=O)C(Cl)(Cl)Cl)OC,-4,-5,i,-2,-2,0,14,.,
CC1CN=C(NC(C)c2ccccc2)S1 (stereo not given),6,0,i,4,9,3,1,-3,
CN(C)CCSCc1nnc2n1-c1ccc(Cl)cc1C(c1ccccc1Cl)=NC2,-4,-8,i,1,3,.,.,.,
Cc1cc([P+](=O)O)c(C)n1-c1ccc(Br)cc1,.,-9,i,-6,2,14,40,3,
CCOC(=O)C(O)(c1ccc(NC(=S)NC(=O)c2ccc(Cl)cc2Cl)c(C)c1)C(F)(F)F (stereo not given),36,30,i,-4,-28,-4,-13,-17,
CN1CN(c2cccc([N+](=O)[O-])c2)CN=C1N[N+](=O)[O-],-15,-7,i,6,0,-1,-1,.,
CN1CCN(C(=O)COc2ccc(S(=O)(=O)NC3CCCCC3)cc2Cl)CC1,1,12,i,-1,-3,-10,-4,-5,
C=C1[C@H]2C[C@H]3[C@H]4N5C[C@]6(C)CCC[C@]47[C@H]([C@H]2O)[C@]3(C[C@]5(O)[C@H]67)[C@@H]1O,.,-9,i,1,2,.,.,-17,
c1cc2c(cc1-c1ccc3c(c1)OCO3)CNCc1cnnn1-2,-7,.,.,5,3,.,.,-14,
COc1ccc(CC(=O)N(CCN(C)C)CC2CCCN(Cc3ccccc3F)C2)cc1 (stereo not given),-4,1,i,3,2,11,6,-13,
COCCOC(=O)c1c(N)n(Cc2ccccc2)c2nc3ccccc3nc12,.,-6,i,-8,5,1,0,-17,
COc1ccc(CNCCc2ccc3c(c2)OCO3)cc1Br,25,-4,i,0,1,7,-8,1,
O=C(CCN1CC=C(c2ccccc2)CC1)NCc1ccccc1,-10,.,.,2,0,.,.,-10,
O=[N+]([O-])c1ccc(N2CCCCCC2)c2nonc12,34,13,i,-39,45,?,?,7,
CCCCn1c(O)c(C(C)=Nc2c(C)n(C)n(-c3ccccc3)c2=O)c(=O)[nH]c1=O,-27,-6,i,4,-1,14,4,-6,
Nc1ccncc1,22,-5,i,-1,4,-11,-2,-15,
COc1ccc(CN2C(=O)CC(=O)NC2=O)cc1,-7,5,i,-29,3,?,?,0,
COc1ccc(Br)cc1CN1CCN(CCO)CC1,?,-8,i,-3,10,0,17,-20,
COc1cc(/C=C/c2nc3ccccc3c(=O)n2-c2ccc(O)cc2)ccc1O,6,27,i,-69,-1,-4,12,-10,
CCOc1ccc(CC2C(=O)NC(=O)N(c3ccc(CC)cc3)C2=O)cc1 (stereo not given),.,4,i,7,6,-5,13,-8,
CC(C)(C)C(=O)OCC12CCC(O1)C1(C)C(=O)OCC21 (stereo not given),-20,.,i,3,4,-3,4,.,
Cn1c(O)c(C=NCCN2CCN(C(=O)Nc3ccccc3)CC2)c(=O)n(C)c1=O,-12,14,.,1,3,-4,-6,-9,
Cc1ccc(C(O)(c2ccc(C)c(C)c2)C2CN3CCC2CC3)cc1C (stereo not given),32,2,i,-14,-7,-7,10,-22,
Cc1ccc(N2C(=O)CC(=O)NC2=O)cc1Cl,-16,18,i,-6,2,38,-4,-1,
Oc1cc(Cl)ccc1Oc1ccc(Cl)cc1Cl,.,13,i,-12,-31,.,.,-3,
C(=NC12CN3CN(CN(C3)C1)C2)c1cccnc1,-29,2,.,-2,6,-11,6,-14,
CC(C)(C)C(=O)O[C@H]1CC[C@@]2(C)C(=CC(=O)C3C2CC[C@]2(C)C(=O)[C@@H](F)CC32)C1 (stereo not given in full),?,18,.,0,-3,.,.,-4,
O=C(Cc1ccc(Cl)cc1)NCCN1CCN(C(=O)Cc2ccc(Cl)cc2)CC1,-10,-4,i,1,-4,0,3,-9,
O=c1[nH]c(O)c(C=Nc2ccccc2[N+](=O)[O-])c(=O)[nH]1,.,-6,i,.,.,-1,19,.,
Cc1c(C=O)c2ccccc2n1Cc1ccccc1F,20,-12,i,-6,-6,-7,-2,.,
COc1ccc(CN2C(=O)NC(=O)/C(=C\c3ccc(OC)c(OC)c3OC)C2=O)cc1,2,-13,i,-1,2,9.0*,66,-4,eIF4H inh retest=60*;PABP FP inh retest=6
COc1ccc(-n2c(O)c(C(C)=NC3CC3)c(=O)[nH]c2=O)cc1,.,.,i,5,2,-11,3,-5,
CCOC(=O)c1c(NC(=O)C(c2ccccc2)c2ccccc2)sc2c1C1CCN2CC1,-62,82*,i,3,-1,-4,12,-3,
Cn1cccc1CNCCc1ccc(F)cc1,4,4,i,-3,0,13,2,-14,
c1ccc(OCC2CO2)cc1 (stereo not given),.,-6,.,3,7,.,.,-3,
CNCC(O)c1cc(OCc2ccccc2)c(OCc2ccccc2)cc1F (stereo not given),21,-21,i,5,-1,.,.,-9,
O=C1C2CCCN2C(c2ccccc2)N1c1ccccn1 (stereo not given),-27,-12,i,4,7,-3,2,-8,
COC(=O)Cn1cc(C(=O)c2ccccc2F)c2ccccc21,8,-13,i,-1,-1,3,-10,2,
COC(=O)C1=C(c2ccc(S(C)(=O)=O)cc2)C[C@@H]2CC[C@H]1N2C(=O)N1CCCC1,8,-9,i,3,3,.,.,4,
O=C1NC(=O)C2(Cc3ccccc3N3CCCC32)C(=O)N1c1ccccc1 (stereo not given),-24,-16,i,-12,3,11,30,2,
CN(C)c1ccc(/C=C/c2cc[n+](C)c3ccccc23)cc1,-11&-23,.,.,92&84,49&65,9,-3,.,
CCCCCn1cc(C(=O)C(=O)N2CCOCC2)c2ccccc21,-2,-6,i,-1,2,8,12,-12,
Cn1c(=O)[nH]c2nncnc2c1=O,7,1,i,4,5,.,.,.,
COc1ccc(C(c2nnnn2-c2ccc3c(c2)OCCO3)N2CCC3(CC2)C(=O)NCN3c2ccccc2)cc1 (stereo not given),-106,.,.,-12,-34,.,.,-4,
COc1cccc(N(C(C)=O)C2=NCCCS2)c1,2,-12,i,0,-1,1,-3,-16,
O=C(c1ccc(F)cc1Cl)N1CCC2(CC1)OCCO2,-37,-12,i,0,3,13,3,-13,
O=C(Nc1ccc(Cl)cc1C(=O)c1ccccc1)c1ccccc1,.,-1,i,0,-8,1,-5,-18,
COc1ccccc1OCC#CCN1CCOCC1,-13,-3,i,1,3,1,-17,.,
COc1ccc(-c2nc3ccccc3c(=O)n2-c2ccc(OC)cc2)cc1,-69,-11,i,-1,-2,4,3,.,
CC1CN=C(NCc2ccncc2)S1 (stereo not given),.,-4,i,4,7,8,-1,-13,
CC(=NCc1ccco1)c1c(O)n(C)c(=O)n(C)c1=O,-5,0,.,3,4,-11,-4,-3,
CC(=NCCc1ccccc1)c1c(O)[nH]c(=O)[nH]c1=O,-1,-8,i,2,2,-6,-12,.,
CN(C)C(=O)Nc1cccc(OC(=O)N(C)C)c1,-18,-10,i,2,8,-1,8,.,
COc1ccc(OCC(=O)N2CCN(Cc3nc4cc([N+](=O)[O-])ccc4n3C)CC2)cc1,2,-12,i,-5,-9,5,2,.,
COc1ccc(CN2Cc3cc(-c4ccc(OC)cc4)ccc3-n3nncc3C2)cc1,-59,.,.,2,1,.,.,-15,
O=S(=O)(c1ccc(Cl)cc1)N1CN2CCN(C2)C1,6,0,i,1,-2,-10,4,-11,
COc1ccccc1Sc1ccccc1CC(C)N (stereo not given),-12,-3,i,-5,-2,0,81,-10,eIF4H inh retest=-3;PABP FP inh retest=38

# Carrying on.
SMILES,Env fusion inh,CSC inhib,Rce1 inh,MT1-MMP act inh,MT1-MMP act inh RFP,eIF4H inh,PABP FP inh,UUG fidelity,others
COc1ccc(N2C(=O)/C(=C/c3ccc(OC)c(OC)c3)C(=O)NC2=S)cc1,-9,3,i,-8,0,0,-4,7,
COC(=O)[C@]12OC[C@]34C([C@@H](O)[C@@H]1O)[C@]1(C)CC(=O)C(O)=C(C)[C@@H]1C[C@H]3OC(=O)[C@H](O)[C@@H]24 (stereo not given in full),26,10,i,-54,-37,-8,-13,-7,
O=C(CCN1CCCCC1)Nc1ccc(Br)cc1C(=O)c1ccccc1,-1,-5,i,-2,2,10,24,-5,
O=C1NC(=O)N(c2ccccc2)C(=O)/C1=C/c1ccc([N+](=O)[O-])s1,10,3,i,-25,24,70,40,.,eIF4H inh retest=23;PABP FP inh retest=31
O=c1[nH]c(=O)n(CCc2ccccc2)c(O)c1C=NCCCn1ccnc1,.,-13,i,1,3,-4,2,-18,
O=C(O)C1CN2CCC1CC2 (stereo not given),-25,-19,i,-2,4,1,16,-7,
COc1cccc(C(=O)C2CCCN(Cc3cnn(C(C)C)c3)C2)c1 (stereo not given),28,-15,i,0,4,5,3,.,
COc1ccc(C(=O)O/N=C(/C(N)=O)P(=O)(OC(C)C)OC(C)C)cc1,10,-6,i,-2,0,-9,1,-7,
Cc1cc(C(=O)CS(=O)(=O)c2ccc(F)cc2)cc(C)c1OC(=O)N(C)C,-36,4,i,2,0,11,-5,.,
CCC(=NCCC1=CCCCC1)c1c(O)[nH]c(=O)[nH]c1=O,.,3,i,4,2,0,13,-4,
O=C(COc1ccccc1)N1CCN(C/C=C/c2ccccc2)CC1,9,-4,.,1,6,-4,10,-18,
O=C(CCC(=O)N1C[C@H]2C[C@@H](C1)c1cccc(=O)n1C2)NCc1cccc(C(F)(F)F)c1,.,5,i,0,0,0,-10,3,
CCCOc1ccc(C(C)=O)cc1Cc1c(O)[nH]c(=S)[nH]c1=O,-8,-23,i,-3,0,2,13,3,
CCOC(=O)c1cc(CC)sc1/N=C/c1c(O)[nH]c(=S)[nH]c1=O,-2,1,i,-6,11,21,0,-7,
COc1ccc(N=Cc2c(O)n(-c3ccc(C)cc3)c(=O)[nH]c2=O)cc1,-6,-11,i,0,0,-6,-10,.,
CNC(=O)CSP(=S)(OC)OC,2,.,.,3,4,.,.,-17,
CCN(CC)CCCOC(=O)C(OC(C)C)(c1ccccc1)c1ccccc1,10,-2,i,-8,-6,-6,-2,.,
CCN1C(=O)C(=Cc2ccc(N3CCOCC3)o2)C(=O)N(CC)C1=S,2,-11,i,-104,8,?,?,.,
COc1ccc(C(=O)Cn2c(NCCCl)nc3ccccc32)cc1,23,1,i,-2,-2,3,8,-11,
O=CNc1ccc(OP(=O)(Oc2ccccc2)Oc2ccccc2)cc1,-1,9,i,-1,-2,4,5,-6,
c1cc2c(cc1[C@H]1OC[C@H]3[C@@H]1CO[C@@H]3c1ccc3c(c1)OCO3)OCO2,-10,1,i,-4,-7,5,0,-33,

# Gathered by group: the compounds so far containing a tert-butyl group (2)
SMILES,Env fusion inh,CSC inhib,Rce1 inh,MT1-MMP act inh,MT1-MMP act inh RFP,eIF4H inh,PABP FP inh,UUG fidelity,others
CC(C)(C)C(=O)OCC12CCC(O1)C1(C)C(=O)OCC21 (stereo not given),-20,.,i,3,4,-3,4,.,
CC(C)(C)C(=O)O[C@H]1CC[C@@]2(C)C(=CC(=O)C3C2CC[C@]2(C)C(=O)[C@@H](F)CC32)C1 (stereo not given in full),?,18,.,0,-3,.,.,-4,
